# TRPML1 agonist: qHTS for Agonists of the Human Mucolipin Transient Receptor Potential 1 (TRPML1). Mucolipin-1 (Homo sapiens), Q9GZU1. TRPML1-expressing cells, Ca2+ dye fluorescence, FDSS; host cell line not named in the record; reference of the full effect not given here. 410,000 compounds, 0.12% hits. activation, % (no concentration beside the values); in the data active = activation above about 50%; inconclusive = about 30% to 50%; inactive = below about 30%; further: 0% is about no effect; the text of the record puts the active cut at 80%
# Target sequence (Q9GZU1 whole entry, looked up): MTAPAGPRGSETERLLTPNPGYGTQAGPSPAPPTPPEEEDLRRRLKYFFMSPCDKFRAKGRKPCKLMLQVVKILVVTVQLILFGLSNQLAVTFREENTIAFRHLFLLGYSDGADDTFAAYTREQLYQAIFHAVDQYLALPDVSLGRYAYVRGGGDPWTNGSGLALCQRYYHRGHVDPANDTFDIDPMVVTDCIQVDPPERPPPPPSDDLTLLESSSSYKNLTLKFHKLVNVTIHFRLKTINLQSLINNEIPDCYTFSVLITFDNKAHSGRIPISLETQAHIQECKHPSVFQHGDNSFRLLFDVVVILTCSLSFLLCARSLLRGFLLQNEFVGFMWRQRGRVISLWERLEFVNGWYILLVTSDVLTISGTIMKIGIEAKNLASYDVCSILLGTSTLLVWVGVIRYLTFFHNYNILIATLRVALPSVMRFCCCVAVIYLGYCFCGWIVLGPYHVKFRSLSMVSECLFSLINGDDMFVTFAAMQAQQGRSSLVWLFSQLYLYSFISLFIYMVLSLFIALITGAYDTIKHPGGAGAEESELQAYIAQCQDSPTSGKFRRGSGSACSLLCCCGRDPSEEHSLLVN
#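 In this qHTS format, compounds were pin-transferred onto Ca8-dye-loaded TRPML1-DL cells induced with Tet overnight, and intracellular Ca2+ fluorescence was recorded kinetically for 110 s after a 10 s baseline. A subsequent 4uM final 54-4 (EC80) addition followed by a second 110 s read served as the antagonist phase.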
# PINK1 expr mod: A Quantitative High throughput Screen to Identify Chemical Modulators of PINK1 Expression. PINK1 immunofluorescence, high-content cytometry, 24 h. Potency, µM (top dose mostly 76.6 µM), without a hit: at the top dose activation (PINK1 increase), hits mostly activators. 410,000 compounds, 0.2% hits; active = well fitted activation curve with a large enough effect; inconclusive = small, poorly fitted or top-dose-only effect; inactive = flat fitted curve, though single readings scatter; cell line not stated here;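 further: potency means the concentration at half of the fitted maximal effect; % of control where 0% means no effect; nearly all actives have a fitted effect of over 65% in size; a mitochondrial uncoupler was the plate control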
#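 Compound titrations (5 concentrations, 24 h) on a stable cell line; DMSO and CCCP controls. Endpoint: fixed-cell PINK1 immunofluorescence with mitochondrial, cell and nuclear markers, scanned by microplate cytometer.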
# TRPML1 blocker: qHTS for Inhibitors of the Human Mucolipin Transient Receptor Potential 1 (TRPML1); Mucolipin-1 (Homo sapiens), Q9GZU1; 390,000 compounds, 0.02% hits; activity change, negative = inhibition, % (concentration not given with the values); TRPML1-inducible cells, Ca2+ dye fluorescence, FDSS; hits give low values; inhibition of EC80 agonist-evoked calcium signal; in the data active means activity change below about -50%; inconclusive means about -30% to -50%; inactive means above about -30%;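 further: stimulus is agonist 54-4 at its EC80 concentration; on the % scale 0 is the no-effect control and ±100 the full control effect; the text of the record puts the active cut at -80%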
#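 Calcium fluorescence in TRPML1-DL cells induced overnight with Tet: a 110 s read after compound pin addition, then a 110 s antagonist read after challenge with 54-4 at 4 uM final (EC80).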
# Six1-Eya2 inh: qHTS Assay for Inhibitors of the Six1/Eya2 Interaction; Homeobox protein SIX1 (Homo sapiens) + Protein phosphatase EYA2 (Homo sapiens), …; AlphaScreen GST-Six1/His-Eya2 binding, biochemical; hits give low values; control for the full effect not named in the record; activity change, % (no concentration beside the values); 360,000 compounds, 0.56% hits; AID 651725, 2012; in the data active = activity change below about -65%; inconclusive = about -30% to -65%; inactive = above about -30%; further: on the % scale 0 is the no-effect control and ±100 the full control effect
#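 Homogeneous AlphaScreen proximity assay pairing GST-Six1 with His-tagged Eya2 (added as 5X mix: 250 nM and 500 nM) in 50 mM Tris pH 8.0, 300 mM NaCl, 1 mM TCEP. Glutathione donor and nickel acceptor beads; 1 h, 37 °C, dark.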
# D2 ag: Beta-Arrestin HTS for Positive Allosteric Modulators of the Human D2 Dopamine Receptor: Agonists; D(2) dopamine receptor (Homo sapiens), P14416; DiscoveRx PathHunter D2 beta-arrestin, luminescence, 90 min; 100% = 57 uM dopamine signal; activation, % (concentration not given with the values); 360,000 compounds, 0.084% hits; AID 624465, 2012; in the data active = activation above about 40%; inconclusive = about 15% to 40%; inactive = below about 15%; further: the text of the record calls up to 30% inactive
# Target sequence (P14416 whole entry, looked up): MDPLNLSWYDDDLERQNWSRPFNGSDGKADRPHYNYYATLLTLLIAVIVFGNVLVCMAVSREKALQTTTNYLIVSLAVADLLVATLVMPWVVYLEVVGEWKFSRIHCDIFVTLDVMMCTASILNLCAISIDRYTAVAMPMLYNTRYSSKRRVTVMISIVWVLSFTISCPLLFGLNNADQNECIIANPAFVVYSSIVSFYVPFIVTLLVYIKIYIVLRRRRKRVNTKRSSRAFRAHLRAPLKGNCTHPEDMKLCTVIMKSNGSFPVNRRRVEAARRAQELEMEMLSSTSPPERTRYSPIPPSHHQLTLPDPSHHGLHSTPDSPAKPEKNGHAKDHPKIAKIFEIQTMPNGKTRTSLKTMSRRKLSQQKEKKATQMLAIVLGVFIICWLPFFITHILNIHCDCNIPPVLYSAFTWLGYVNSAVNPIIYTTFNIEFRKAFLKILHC
#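 DiscoveRx PathHunter D2 beta-arrestin cells (2,100/well) attached overnight, then compound-stimulated 90 min at 37 C in HBSS/10 mM HEPES/0.1% Tween-20 buffer; beta-galactosidase complementation read by luminescence after 1 h at ambient temperature. Dopamine 57 uM final (EC100) as control.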
# CtBP-E1A blk: qHTS Assay for Inhibitors of the CtBP/E1A Interaction. CtBP / adenovirus E1A interaction (AlphaScreen). AlphaScreen GST-E1A/His-CtBP binding, 1536-well; hits give low values; control for the full effect not named in the record. activity change, % (test concentration not listed). 340,000 compounds, 0.49% hits; in the data active means activity change below about -65%; inconclusive means about -30% to -65%; inactive means above about -30%; further: on the % scale 0 is the no-effect control and ±100 the full control effect
#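 In 5 uL wells, 23 nL compound meets equimolar GST-E1A and His-CtBP (5X stock 125 nM each) for 2 h, 37 °C. Beads (5X, 50 ug/mL) then 1 h, 37 °C, dark.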
# Active calls of the source: *; ? = inconclusive; . = not tested or not shown; & = joins results of further samples; [ ] = dose if it differs, or a comment. Random draw from the library; any-hit rate near 1%.
# Results follow in this order: TRPML1 agonist, PINK1 expr mod, TRPML1 blocker, Six1-Eya2 inh, D2 ag, CtBP-E1A blk
Cc1nnc2n(Cc3ccccc3)c(=O)c3c4c(sc3n12)COC(C(C)C)C4 (stereo not given)
    0.8, -0.2%, 1, 1, -4.1, 5
Cc1cc(NC(=O)C(C)SCC(=O)N(C)CC(=O)Nc2ccccc2Br)no1 (stereo not given)
    -0.1, 2.2%, -8, 0, -3.6, 8
CCOC(=O)/C=C1\SCC(=O)N1CC(=O)NC(c1ccccc1)c1ccccc1
    0.0, 6.2%, -14, -4, -5.9, 7
CCCn1nnnc1NC(=O)COc1ccc(Cl)c(C)c1
    2.5, -0.3%, -4, -8, 0.7, -7
c1ccc(-c2ccccc2-c2nc(-c3cccnc3)no2)cc1
    1.1, -0.5%, 29, 15, -1.0, 6
Cc1cc(NS(=O)(=O)c2ccc(NC(=O)C(C)N3C(=O)c4ccccc4C3=O)cc2)nc(C)n1 (stereo not given)
    0.2, 6.8%[38.3 µM], 22, -1, -3.1, -8
O=C(NC1CCCc2c1cnn2-c1ccc(F)cc1F)c1cnccn1 (stereo not given)
    0.4, 0.3%, 4, 6, 0.8, 4
Cc1cc(C)cc(NC(=O)C(OC(=O)c2cccs2)c2ccccc2)c1 (stereo not given)
    -0.2, -1.3%, 6, 13, -3.5, 0
COc1ccc(CC(=O)Nc2ccc(S(=O)(=O)Nc3ncccn3)cc2)cc1OC
    1.0, 0.6%, -10, 3, 1.7, -3
COc1ccccc1N(CC(=O)NC1CCCCC1)C(=O)c1csnn1
    0.0, 1.7%, -8, 7, -3.0, 4
O=C(CN1CCCC1=O)NC1(C(F)(F)F)NC(=O)N(Cc2ccccc2)C1=O (stereo not given)
    0.3, ., -5, 1, -0.1, 5
C/C(=N\NC(=O)CSCc1ccccc1Cl)c1cc(O)ccc1O
    -0.3, 2.5%, 1, ?, -2.6, -24
Cc1cc(C)cc(NC(=O)Cn2c3ncccc3c(=O)n2-c2ccc(C)c(C)c2)c1
    -0.8, 1.0%, 24, ., ., .
O=C(NCC1CCCO1)c1cnc(Cl)c(Cl)c1 (stereo not given)
    0.4, -1.0%, 11, 1, 0.7, 7
COC(=O)[C@]12CCCCC=C1N(Cc1ccc(Cl)cc1Cl)C(=O)[C@H](CC(=O)N1CCSCC1)C2
    -0.9, 3.0%, ., -13, ., -14
CCN(CC)S(=O)(=O)c1nnc(NC(=O)COc2cccc(C)c2)s1
    0.4, 3.1%, 21, ., ., .
O=C1C=C(c2ccc(Oc3ccccc3)cc2)C[C@@H](c2ccc(Cl)cc2)C1
    -0.1, 0.7%, -2, 3, 0.8, 4
COc1ccc(S(=O)(=O)c2nnn(-c3cccc(Cl)c3)c2N)cc1
    1.8&4.0, -1.9%&-5.7%, -5&0, 2, -0.5, 2
CN1C(=O)c2cccc3c(S(=O)(=O)Nc4ccccn4)ccc1c23
    -0.1, 2.8%, -12, -1, -0.4, 2
COc1ccc(N2CS(=O)CC2=O)cc1 (stereo not given)
    -0.6, -1.2%, 11, 4, 5.2, .
CC(C)n1nnnc1C1c2ccccc2C(=O)N1Cc1ccc(F)cc1 (stereo not given)
    -0.7, 0.4%, ., 15, ., -16
CC12CCC(=O)N1C(C(=O)Nc1nc(-c3cc(F)ccc3F)cs1)CS2 (stereo not given)
    -1.1, 6.0%, 27, -3, -3.2, 8
Cc1ccccc1CS(=O)(=O)Cc1ccc(C(=O)NCc2ccco2)o1
    -0.4, 4.8%, -4, 5, 3.1, -3
NNC(=O)c1ccc2ccccc2n1
    2.8, 0.7%, 6, 1, -3.3, 2
COCc1c(C(=O)NCC2COc3ccccc3O2)oc2ccccc12 (stereo not given)
    -0.3, -1.1%, 15, 7, 5.3, 6
S=C(NCc1ccccc1)Nc1nccs1
    0.5, 3.8%, 1, 3, 1.3, 2
COc1ccc(C)cc1NC(=O)Nc1ccc2c(c1)CCC2
    0.9, 6.4%, -15, -10, -7.3, -4
Cn1c(CNC2CCCCC2)nc2ccccc21
    2.0, -2.0%, -5, 7, -2.9, 3
COc1ccc(S(=O)(=O)N2CCC(n3cnc4ccccc43)CC2)cc1
    1.1, -1.6%, 12, -2, 0.1, -2
CCOc1ccc(C(=O)CCC(=O)Nc2ncccc2O)cc1
    -0.1, -1.5%, -9, -20, 0.9, -17
O=C(c1ccncc1)N1N=C2CCCCCC2C1(O)C(F)(F)F (stereo not given)
    0.3, 1.2%, -1, 2, -2.2, 3
CCC(C)N(C(=O)COc1ccc(NC(C)=O)cc1)C1CCS(=O)(=O)C1 (stereo not given)
    1.0, 1.1%, -18, -3, -4.8, .
O=C(CN1C(=O)/C(=C\c2ccccc2Br)Oc2ccccc21)NCCCN1CCOCC1
    0.8, 1.9%, 3, 2, -0.4, .
O=C(c1ccc(Br)cc1)N1CCC2(CC1)NCCc1[nH]cnc12
    -0.7, 0.4%, 23, -2, -1.5, 1
C#CCNC(=O)C1=C[C@@H](C2CCCCC2)[C@H](CCCO)[C@@H](OCC)O1
    -0.5, -0.7%, 0, 6, -1.3, 4
COc1cc(C2C(C#N)=C(N)OC3=C2C(=O)CC(C)(C)C3)cc([N+](=O)[O-])c1O (stereo not given)
    ., 0.5%, ., -3, -11, -24
CCCCN(CC)S(=O)(=O)c1ccc(C(=O)N(CCCN(C)C)c2nc3cc(C)cc(C)c3s2)cc1
    -0.1, 2.8%, 3, -27, -3.0, -15
CCOc1cc(CNn2cnnc2)cc(Br)c1OCC(=O)NC1CCCCC1
    0.5, -1.8%[38.3 µM], -7, 1, -1.6, -1
O=C(NCCc1ccccc1)C1CCC(=O)N(Cc2ccc(Cl)cc2)C1 (stereo not given)
    0.3, 1.1%, 18, 6, -0.4, 0
Cc1cc(NC(=O)CN2C(=O)NC(C)(c3ccc(OC(F)F)cc3)C2=O)no1 (stereo not given)
    4.3, 1.8%, -9, 0, -2.6, 6
CCOc1ccc(NS(=O)(=O)c2ccc(C(=O)NCC(c3ccco3)N3CCCCC3)cc2)cc1 (stereo not given)
    12, -0.5%, 4, -8, -1.0, -12
CCOc1cc(S(=O)(=O)NCCc2ccc(OC)c(OC)c2)c(OCC)cc1-n1cnnn1
    -0.2, 8.2%[38.3 µM], 0, 1, -1.8, 1
COc1ccc(C(c2nnnn2C(C)(C)C)N2CCN(c3nc4ccccc4s3)CC2)cc1 (stereo not given)
    -0.1, 1.7%, 21, -2, -1.4, 4
O=C(Cn1c(=O)oc2cc(S(=O)(=O)N3CCCCCC3)ccc21)NC1CCCCC1
    -0.2, 5.8%, -2, 16, -3.2, -24
CCCCCCNc1cc2n(c(=O)n1)CCc1cc(OC)c(OC)cc1-2
    1.8, 2.1%[38.3 µM], 10, -71*, 0.7, -81*
Clc1ccc(-c2cc(CSc3ccccc3)on2)cc1
    0.5, 11%, 11, 46, 0.3, 26
N#Cc1ccccc1OCc1nnc(-c2ccccc2Br)o1
    1.9, 3.3%, 0, 6, 2.2, 3
Cc1cccc(NC(=O)CNC(=O)[C@H]2O[C@@H](n3ccc(N)nc3=O)[C@H](O)[C@@H]2O)c1C
    -0.5, -1.6%, ., 8, -2.4, 4
COc1ccc(NC(=O)CSc2nc3ccccc3c(=O)[nH]2)cc1S(N)(=O)=O
    -0.1, 0.6%, -14, -7, -2.5, .
Cc1cccc(N)c1-c1c(C)cccc1N
    -0.5, 1.6%, 4, -7, 4.6, 1
CCC(C)[C@H](NC(=O)C1(c2ccccc2)CCN(C(=O)OC(C)(C)C)CC1)C(=O)N[C@@H](C(=O)O)c1ccccc1 (stereo not given in full)
    ., -0.5%, ., 2, 2.4, 9
COc1ccc(C(=O)Nc2ccc(Cl)cc2C(=O)N2CCCC(C)C2)cc1 (stereo not given)
    -0.1, 4.1%, -13, -3, -2.2, 2
Cc1ccc2nc(COc3ccc(N(C)S(=O)(=O)c4ccccc4)cc3)cc(=O)n2c1
    0.2, 4.3%, 2, -2, 1.4, -15
O=C(O)c1cccc(Nc2nc(C(F)(F)F)nc3ccccc23)c1
    -0.2, -0.2%, -25, -2, -0.2, -6
O=C(NC1CC1)c1cccc(NC(=O)C2CCN(S(=O)(=O)c3ccccc3C(F)(F)F)CC2)c1
    -0.5, 0.1%, 11, -1, 4.3, 2
Cc1nc(-c2ccc(NC(=O)C3CC3)cc2)cs1
    -0.4, 1.8%, 6, -11, 2.2, -1
O=C(O)c1ccc(S(=O)(=O)NC2CCCc3ccccc32)cc1 (stereo not given)
    -0.8, 1.3%, 1, -1, -5.5, 1
CN(C(=O)CN1C(=O)S/C(=C\c2ccc(Cl)cc2)C1=O)C1CCS(=O)(=O)C1 (stereo not given)
    0.1, -1.3%, -8, 10, -20, -12
COC(=O)C(C)n1nnc2sc(-c3ccccc3)cc2c1=O (stereo not given)
    2.6&2.0, 0.9%&2.7%, 1&14, 4, -2.6, 8
COc1ccc(CCNc2oc(COc3ccc(Br)cc3)nc2C#N)cc1OC
    2.1, 6.6%, 23, -20, 1.6, -15

# Continuation:
# Results follow in this order: TRPML1 agonist, PINK1 expr mod, TRPML1 blocker, Six1-Eya2 inh, D2 ag, CtBP-E1A blk
O=C(NN=Cc1ccccc1O)c1cccc([N+](=O)[O-])c1
    -0.4, 0.5%, 13, ?, -2.2, ?
COC(=O)c1ccc2c(=O)n(CCCCCC(=O)N3CCN(c4ccccc4)CC3)c(=O)[nH]c2c1
    -0.7, -1.2%, -8, 0, 8.8, 0
COC(=O)C1=C(C)NC2=C(C(=O)CC(C)(C)C2)C1c1cccc(C)n1 (stereo not given)
    0.8, 1.6%, -2, -2, -4.0, 8
COc1ccc(CC(=O)n2nc(-c3cccnc3)nc2N)cc1
    0.5, -0.8%, 0, 0, -1.1, -10
COC(=O)c1c(NC(=O)COC(=O)c2ccc(C)s2)sc2c1CCCCC2
    0.6, 5.4%, 19, 4, 2.8, .
O=[N+]([O-])c1cc(C(F)(F)F)ccc1NCCc1c[nH]c2ccccc12
    -0.9, -1.6%, 7, ?, 1.8, -23
CC1(C)CC(=O)C=C(Nc2ccc(Cl)cc2)C1
    -0.7, 0.9%, 9, 7, 6.2, 7

# 3 entries from above, arranged by length of the SMILES, ascending:
# Results follow in this order: TRPML1 agonist, PINK1 expr mod, TRPML1 blocker, Six1-Eya2 inh, D2 ag, CtBP-E1A blk
O=C(NN=Cc1ccccc1O)c1cccc([N+](=O)[O-])c1
    -0.4, 0.5%, 13, ?, -2.2, ?
CCCCCCNc1cc2n(c(=O)n1)CCc1cc(OC)c(OC)cc1-2
    1.8, 2.1%[38.3 µM], 10, -71*, 0.7, -81*
O=C(CN1C(=O)/C(=C\c2ccccc2Br)Oc2ccccc21)NCCCN1CCOCC1
    0.8, 1.9%, 3, 2, -0.4, .

# Compound activity deposited in PubChem by National Center for Advancing Translational Sciences (NCATS).
